# Screens: PubChem, National Center for Advancing Translational Sciences (NCATS)
# Vaccinia mCherry = qHTS for Stage-Specific Inhibitors of Vaccinia Orthopoxvirus: mCherry Reporter Primary qHTS. hit rate 0.63% among 310,000. Vaccinia virus mCherry reporter infection, fluorescence; about a quarter of the inactives have no number. Potency, µM (series often up to 36.5 µM), inactives show top-dose activity change, negative = inhibition, hits mostly inhibitors. AID 720579, 2013; active = well fitted inhibition curve with a large enough effect; inconclusive = small, poorly fitted or top-dose-only effect; inactive = no such curve, though single readings can be large or run the other way; tested in A549 cells; also: nearly all actives have a fitted effect of over 35% in size; inactives centre near -10
# Vaccinia Venus = qHTS for Stage-Specific Inhibitors of Vaccinia Orthopoxvirus: Venus Reporter Primary qHTS. Vaccinia virus Venus reporter expression, fluorescence. Potency, µM (top dose mostly 36.5 µM), inactives show at the highest dose activity change, negative = inhibition, hits mostly inhibitors. hit rate 0.46% among 330,000; active means well fitted inhibition curve with a large enough effect; inconclusive means small, poorly fitted or top-dose-only effect; inactive means no such curve, though single readings can be large or run the other way; tested in A549 cells; also: nearly all actives have a fitted effect of over 30% in size; inactives centre near -10
# * marks the source's active call; other numbers are inactive results; i = inactive; ? = inconclusive; . = not tested or not shown; [ ] = another dose, or the depositor's remark. % is scaled to controls: 0 for no effect and ±100 for the full control effect; potency is read from the fitted curve at half-maximal effect.
# Value order – Vaccinia mCherry | Vaccinia Venus
CN1C(=O)/C(=N\OC(=O)c2ccccc2Cl)c2ccccc21
→ i | -5%
CCn1cc2nc(SCc3cccc(C(F)(F)F)c3)n(Cc3ccc(OC)cc3)c(=O)c2n1
→ ? | -18%
COc1cc(CN(C(=O)c2cc3ccccc3oc2=O)C2CCS(=O)(=O)C2)cc(OC)c1OC (stereo not drawn)
→ -6% | -5%
O=C(NCc1ccco1)/C(=C\c1cccnc1)NC(=O)c1ccccc1F
→ -5% | -12%
Cc1nn(CCCC(=O)Nc2ccc(Br)cc2F)c(C)c1[N+](=O)[O-]
→ -9% | -3%
CC(C)n1nnnc1SCC(=O)c1ccc2c(c1)OCCO2
→ -7% | -4%
Cc1cccn2c(=O)c3cc(C#N)c(=NC(=O)c4cccs4)n(CC(C)C)c3nc12
→ 1% | 12%
Cc1noc(C)c1CCC(=O)Nc1cc(Cl)ccc1C(=O)O
→ -1% | -3%
O=C(CN1CCN(c2cccc(Cl)c2)CC1)NC1CCCc2ccccc21 (stereo not drawn)
→ ? | -4%
N#Cc1cccc(S(=O)(=O)N2CCN(S(=O)(=O)c3ccc4c(c3)OCCO4)CC2)c1
→ 35%[activator] | -5%
CN(C)CCNC(=O)Cn1c(=O)c2cccn2c2ccc(F)cc21
→ 3% | 5%
CN(CC(=O)Nc1ccc(F)cc1)C(=O)CN1C(=O)c2ccccc2C1=O
→ i | -3%
COc1cccc(NC(=S)N(Cc2ccccn2)Cc2ccccc2Cl)c1
→ -15% | -9%
COc1cn(-c2ccccc2)nc1C(=O)NCc1ccc(C)cc1
→ ? | -24%
O=C(Nc1nnc(SCc2ccc(Cl)cc2)s1)C1CC(=O)N(Cc2ccccc2)C1 (stereo not drawn)
→ -28% | -24%
CCC(=O)c1cc(F)c(N2CCN(C(=O)Cc3ccccc3)CC2)cc1C
→ i | -20%
O=C(CCCC(=O)OCC(=O)c1ccc(Cl)cc1)NC1CCCCC1
→ -4% | -18%
COC(=O)/C(=C1\OC(=O)C(c2ccccc2)C1=O)c1ccccc1 (stereo not drawn)
→ -2% | -3%
CN(CCOc1ccccc1)C(=O)c1cc(S(=O)(=O)N2CCCCC2)ccc1Cl
→ -19% | 1%
CC(=O)NS(=O)(=O)c1ccc(NC(=O)COc2ccc(C(=O)c3ccccc3)cc2)cc1
→ -3% | -6%
CCOc1ccccc1NC(=O)c1cccc(NC(=O)CC(c2ccccc2)c2ccccc2)c1
→ -4% | -19%
CCCNC(=O)Nc1ccc(F)c(Cl)c1
→ i | -18%
CCOc1ccc(C(=O)Nc2nccs2)cc1[N+](=O)[O-]
→ -14% | -9%
C=CCn1c(SCC(C)=O)nnc1-c1ccc2ncccc2c1
→ i | -13%
Cc1ccc(N/C=C(\C#N)c2ccc(OCCCF)cc2)cc1
→ -17% | -9%
CN(C)CCCNC(=S)Nc1ccc(-c2ccccc2)cc1
→ ? | ?
COC(=O)c1ccc(Nc2nc(-c3ccncc3)nc3ccccc23)cc1
→ -2% | -14%
Cc1cccc(C)c1OCC(=O)N/N=C/c1cc2c(cc1[N+](=O)[O-])OCO2
→ i | -11%
Cc1cccc(N2CCN(C(=O)c3ccc(NS(=O)(=O)c4c(C)noc4C)cc3)CC2)c1C
→ -16% | ?
CCS(=O)(=O)N1CCCC(C(=O)NCCCN(C)Cc2ccccc2)C1 (stereo not drawn)
→ . | -18%
CCCC1=NN2C(=N)/C(=C\c3ccc(SCc4ccco4)o3)C(=O)N=C2S1
→ 81%[activator] | 137%[activator]
Cc1cc(NC(=O)CSc2nc(-c3ccccc3C)nc3c2c(=O)n(C)c(=O)n3C)no1
→ -9% | -23%
O=C(Oc1ccc2cc(Br)ccc2c1)c1cccnc1
→ -15% | 0%
COc1ccc(CCNC(=O)c2cn(C)c3ccc(S(=O)(=O)N(C)C4CCCCC4)cc3c2=O)cc1OC
→ -22% | -14%
CCC(NC(=O)C1CCCC1)c1ccccc1 (stereo not drawn)
→ -5% | -12%
Cc1c2cnn(CC(=O)NCc3ccc(Cl)cc3)c(=O)c2c(C)n1Cc1ccc(F)cc1
→ -15% | -18%
C/C(=N\NC(=O)COc1ccc(C(C)(C)C)cc1)c1ccccc1
→ -7% | 1%
CNC(=S)N1CCN(C(c2ccccc2)c2ccccc2)CC1
→ -15% | -11%
COc1cccc(/C=N/N2CCN(Cc3ccccc3)CC2)c1O
→ -15% | -5%
CC(C)c1ccc(C(=O)N2CCCCC2c2cc(C(=O)Nc3ccncc3)no2)cc1 (stereo not drawn)
→ i | -11%
Cc1cccc(C)c1NC(=O)C1(N(Cc2ccco2)C(=O)Cn2nnnc2N)CCCCC1
→ i | -13%
O=C(Nc1ccc(Cl)cc1)c1csc([C@@H]2O[C@H](CO)[C@@H](O)[C@H]2O)n1
→ -20% | -17%
O=C(NCc1cc2ccccc2[nH]1)c1ccccc1F
→ -14% | -7%
CC(=O)c1c(C)[nH]c(C(=O)Nc2cc(S(=O)(=O)N(C)C)ccc2C)c1C
→ -5% | 2%
CNC(=O)c1cc(OCC(F)(F)F)ccc1OCC(F)(F)F
→ -4% | -9%
CN(C)c1cccc(C(=O)Nc2nc3ccc(S(=O)(=O)NC(C)(C)C)cc3s2)c1
→ ? | ?
Cc1c(CCC(=O)O)c(=O)oc2cc(OCc3ccccc3F)ccc12
→ i | -9%
N#C/C(=C\c1ccc2c(c1)OCCO2)C(=O)Nc1nccs1
→ 11% | 5%
Cc1cccc2sc(NC(=O)C3CC3)nc12
→ -10% | -4%
CCCNC(=O)c1cc(C2CCCN(C(=O)c3ccc(OC)cc3)C2)on1 (stereo not drawn)
→ 6% | -7%
O=C(CCNS(=O)(=O)c1cccc2nonc12)NC1CCCCC1
→ i | -22%
C=CCNC(=O)/C=C/c1c(F)cccc1Cl
→ -13% | -20%
COc1ccc(C(c2c(O)cc(C)n(Cc3ccco3)c2=O)N2CCN(c3ccccc3)CC2)cc1 (stereo not drawn)
→ -7% | -2%
O=C(COC(=O)C1CC(=O)N(Cc2ccccc2)C1)Nc1ccc(Cl)cc1F (stereo not drawn)
→ i | -26%
COc1ccccc1/C=N/OC(=O)c1ccc(F)cc1
→ -11% | 8%
CCOc1cc(Br)c(CC(=O)NC2CCCCCC2)cc1OCC
→ -27% | -5%
O=C(NCC1CC1)[C@@H]1C[C@H]1[C@@H](NP(=O)(c1ccccc1)c1ccccc1)c1ccccc1
→ i | -23%
CN1C(=O)c2ccc(NC(=O)CCS(=O)(=O)c3ccccc3)cc2C1=O
→ -1% | -8%
COC(=O)c1cc(NC(=O)[C@H](CCS(C)(=O)=O)N2Cc3ccccc3C2=O)cc(C(=O)OC)c1
→ 2% | 2%
CCc1ccccc1NC(=S)N1CCN(c2cccc(OC)c2)CC1
→ -14% | ?

# Continuation:
# Value order – Vaccinia mCherry | Vaccinia Venus
Cc1cccc(Nc2nc3c(s2)CCCC3)c1
→ -27% | -16%
Cc1cc(C(F)(F)F)n2nc(-c3cnn(C)c3C(F)(F)F)c(Br)c2n1
→ -14% | -14%
O=C(CSc1ccc(-c2ccccn2)nn1)Nc1ccccc1
→ ? | ?
CC(=O)Nn1c(-c2ccccc2)cc2ccccc21
→ -15% | -10%
CN(CC(=O)Nc1ccc(Cl)cc1)CC(=O)Nc1cc(Cl)ccc1C#N
→ -13% | -20%
Cn1cc(/C=N/n2cnc3scc(-c4ccccc4)c3c2=O)c2ccccc21
→ ? | ?
CS(=O)(=O)N(CCc1ccccc1)CC(=O)N1CCN(Cc2ccccc2)CC1
→ -6% | -22%
Cc1ccc2nc(N3C(=O)C(O)=C(C(=O)c4ccco4)C3c3cccs3)sc2c1 (stereo not drawn)
→ -14% | 2%
O=C(NCc1ccc(Cl)cc1)c1ccc2c(c1)nnn2C1CCCC1
→ -8% | -2%
Cn1cccc1C(=O)NC(=O)COC(=O)c1cc([N+](=O)[O-])ccc1Cl
→ 3% | -4%
CC(=O)Nc1c(O)nc(SCC(=O)Nc2ccc(C(C)=O)cc2)[nH]c1=O
→ -14% | -1%
CCOC(=O)C1=C(C)NC(C)=C(C(=O)OCC)C1c1cn(-c2ccccc2)nc1-c1ccco1
→ -14% | -13%
CCOC(=O)C1(Cc2cccc(OC)c2)CCCN(Cc2nccn2CC)C1 (stereo not drawn)
→ i | -18%
CCCc1nc2c3ccccc3ccn2c1Cc1ccccc1
→ 7% | -13%
C=CCN1C(=O)c2ccc(C(=O)N(CC(C)C)c3c(N)n(CCCC)c(=O)[nH]c3=O)cc2C1=O
→ -11% | 2%
CN(c1ccccc1)c1nc(-n2ccnc2)nc(-n2ccnc2)n1
→ -8% | -10%
COc1cccc(N2CN(CCc3ccccc3)CNC2=S)c1
→ -5% | 7%
COc1ccc(-n2c(C)cc(/C=C3\SC(=O)NC3=O)c2C)cc1
→ -10% | -18%
CCC(C)Sc1ccc([C@H]2N[C@@](C)(C(=O)OC)[C@H]3C(=O)N(C)C(=O)[C@@H]23)cc1OC (stereo partly drawn)
→ -3% | 2%
C#CCNC(=O)C1=C[C@H](C)[C@@H](CCCO)[C@H](OCC)O1
→ i | -5%
COc1ccc(-n2c(Cn3c(=O)sc4ccccc43)nnc2SC)cc1
→ -5% | 0%
CCOc1ccc(NS(=O)(=O)c2ccc3c(c2)NC(=O)CCS3)cc1
→ -5% | -11%
C=CCn1c(N)cc(=O)nc1SCC(=O)Nc1ccc(C)cc1
→ i | -6%
COc1cc(C2C(C(=O)OC(C)C)=C(C)Nc3ncnn32)cc(OC)c1OC (stereo not drawn)
→ -16% | -10%
O=C(/C=C/NNC(=O)c1ccccc1O)c1ccccc1
→ ? | 11%
CCCC(=O)Nc1cc(S(=O)(=O)N(CC)CC)ccc1Cl
→ -16% | -11%
C=CCNC(=O)c1ccc2c(=O)n(CCCN3CCCC3=O)c(=S)[nH]c2c1
→ -13% | -10%
CC(C)=C1C2CCC1C(C(=O)Nc1cc(C)cc(C)c1)C2C(=O)O (stereo not drawn)
→ ? | -14%
COc1ccc(-c2nnc(SCC(=O)Nc3ccc(C(=O)O)cc3)n2-c2ccc(Cl)cc2)cc1
→ -15% | -3%
COC(=O)c1c(NC(=O)c2cccnc2Cl)sc(C(=O)N(C)C)c1C
→ -14% | -10%
CC(=O)/C=C1\SC(CC(=O)O)C(=O)N1c1ccccc1 (stereo not drawn)
→ -3% | -5%
CC(=O)C(Sc1nc(N(C)C)nc(N(C)C)n1)C(=O)Nc1ccccc1 (stereo not drawn)
→ -12% | 0%
Cc1cc(C)c(S(=O)(=O)N2CCCCC2)cc1N(C)S(=O)(=O)c1ccc(Cl)cc1
→ -22% | ?
Cc1ccc(CCNc2ncnc(Cl)c2N)cc1
→ ? | -7%
Cn1c(=O)[nH]c(=O)c2c1nc(Br)n2CC(O)c1ccccc1 (stereo not drawn)
→ . | -23%
CC(C)C(NC(=O)c1ccc(C(C)(C)C)cc1)C(=O)NCC1(N(C)C)CCCCC1 (stereo not drawn)
→ -1% | -9%
COCCn1c(SCC(=O)Nc2ccc3c(c2)OCCO3)nnc1-c1ccncc1
→ -13% | 4%
CCN1C(=O)[C@H]2[C@@H](c3ccc(C)cc3)N3C(=O)N(c4cccc(F)c4)C(=O)[C@@]3(C)[C@H]2C1=O
→ -14% | -2%
O=C(O)c1cccnc1Nc1ccc(Cl)cc1
→ ? | 24%
C#CCOCCOCCOCCNc1nc(N2CCN(C(=O)C([C@@H](C)CC)n3cc(C(N)COC(=O)C(F)(F)F)nn3)CC2)nc(N2CCN(C(=O)[C@H](CCCCN)n3cc(C(N)CC(C)C)nn3)CC2)n1 (stereo partly drawn)
→ -13% | -5%

# 3 structures already listed, ordered by number of heavy atoms, highest first.
# Value order – Vaccinia mCherry | Vaccinia Venus
COc1ccc(-c2nnc(SCC(=O)Nc3ccc(C(=O)O)cc3)n2-c2ccc(Cl)cc2)cc1
→ -15% | -3%
CC(C)=C1C2CCC1C(C(=O)Nc1cc(C)cc(C)c1)C2C(=O)O (stereo not drawn)
→ ? | -14%
Cn1c(=O)[nH]c(=O)c2c1nc(Br)n2CC(O)c1ccccc1 (stereo not drawn)
→ . | -23%

# Entries from the list above that contain a tert-butyl group:
# Value order – Vaccinia mCherry | Vaccinia Venus
C/C(=N\NC(=O)COc1ccc(C(C)(C)C)cc1)c1ccccc1
→ -7% | 1%
CN(C)c1cccc(C(=O)Nc2nc3ccc(S(=O)(=O)NC(C)(C)C)cc3s2)c1
→ ? | ?
CC(C)C(NC(=O)c1ccc(C(C)(C)C)cc1)C(=O)NCC1(N(C)C)CCCCC1 (stereo not drawn)
→ -1% | -9%

# (cont.)
# Value order – Vaccinia mCherry | Vaccinia Venus
COc1c(C)cc(C(O)c2ncc(-c3cccc4ccccc34)[nH]2)cc1C (stereo not drawn)
→ ? | -29%
COc1ccc(-c2csc(NC(=O)CC(NC(C)=O)c3ccccc3)n2)cc1OC (stereo not drawn)
→ i | -10%
COc1ccccc1N1CCN(C(=O)Nc2cn(CC(C)C)c(=O)c3ccccc23)CC1
→ 2% | 1%
CCOC(=O)C1=C[C@@H](C(C)(C)C)N(S(=O)(=O)c2ccc(C)cc2)[C@H]1c1cccc(Cl)c1
→ 13% | 0%
c1csc(CNc2nc(Oc3ccncc3)c3sccc3n2)c1
→ -6% | -1%
Cc1ccc(OCC(=O)Nc2ccc(S(=O)(=O)Nc3ncccn3)cc2)c(C(C)(C)C)c1
→ -10% | 13%
O=C(COc1coc(CN2CCN(c3ccccc3)CC2)cc1=O)NCC1CCCO1 (stereo not drawn)
→ -13% | 1%
O=C(c1cc([N+](=O)[O-])ccc1N1CCNCC1)N1CCOCC1
→ i | -6%
